High-throughput results from PubChem BioAssay.
VACV mCherry inh: inhibitors of vaccinia virus infection (mCherry reporter signal). Vaccinia virus mCherry reporter infection, fluorescence; about a quarter of the inactives have no number. Potency, µM (titrated, usually from 36.5 µM), for the others: at the top dose activity change, negative = inhibition, usual class: inhibitors. 310,000 compounds, 0.63% hits. AID 720579; active = well fitted inhibition curve with a large enough effect; inconclusive = small, poorly fitted or top-dose-only effect; inactive = no such curve, though single readings can be large or run the other way; tested in A549 cells; also: nearly all actives have a fitted effect of over 35% in size; inactives centre near -10
Vaccinia Venus: inhibitors of vaccinia virus (Venus reporter). Vaccinia virus Venus reporter expression, fluorescence. Potency, µM (series often up to 36.5 µM), inactives show top-dose activity change, negative = inhibition, most hits filed as inhibitors. 330,000 compounds, 0.46% hits. AID 720580; active means well fitted inhibition curve with a large enough effect; inconclusive means small, poorly fitted or top-dose-only effect; inactive means no such curve, though single readings can be large or run the other way; tested in A549 cells; also: nearly all actives have a fitted effect of over 30% in size; inactives centre near -10
* marks the source's active call; other numbers are inactive results; i = inactive; ? = inconclusive; · = no result given; & = joins results of further samples; [ ] = another dose, or the depositor's remark. % is scaled to controls: 0 for no effect and ±100 for the full control effect; potency is read from the fitted curve at half-maximal effect.

SMILES	VACV mCherry inh	Vaccinia Venus
Cc1cccc(N(C(=O)CCC(=O)Nc2cccnc2)C(C(=O)NC2CCCC2)c2ccncc2)c1 (configuration not stated)	-10%	-1%
O=C(CSc1nc2c([nH]c3ccccc32)c(=O)n1-c1ccccc1F)Nc1cccc(C(F)(F)F)c1	-13%	-24%
O=C(NCc1nnc2n1CCN(Cc1ccnc3ccccc13)CC2)c1cccc(F)c1	-13%	-14%
CCC(=O)N(CC)Cc1cc(=O)[nH]c2ccccc12	-11%	-10%
COc1ccc2c(c1)-c1nc(/N=C/c3ccc(O)cc3)sc1CC2	-28%	-13%
Cc1cc(SCC(=O)Nc2ccccc2)nc(C)n1	·	-7%
CN(c1ccccc1)S(=O)(=O)c1cccc(NC(=O)CSc2ncn[nH]2)c1	-27%	-29%
Cc1cccc(CN2CCCC(C(=O)c3ccc(C(F)(F)F)cc3)C2)n1 (configuration not stated)	-13%	-14%
CC(=O)Nc1ccc(Nc2ncnc(N)c2[N+](=O)[O-])cc1	-8%	0%
COC(=O)c1cn(C(=O)c2cc(OC)cc(OC)c2)c2ccccc12	-18%	-12%
CC(Sc1ccccc1)C(=O)N1CCN(S(=O)(=O)c2ccccc2C(F)(F)F)CC1 (configuration not stated)	-17%	-13%
COc1ccc(CNC(=O)CCS(=O)(=O)c2cc(Br)cc3c2N(C(C)=O)C(C)C3)cc1 (configuration not stated)	-14%	-9%
CCOc1cc(C2C(C(=O)OC)=C(C)NC3=C2C(=O)c2ccccc23)ccc1OC (configuration not stated)	-17%	-12%
CN(C)CCC1Sc2ccccc2Oc2ccccc21 (configuration not stated)	-11%	-2%
Cc1cccc(CCNC(=O)C2CCN(S(=O)(=O)c3c(C)nn(C)c3C)CC2)c1	-11%	-6%
CCOc1ccc(NC(=O)CN2C(=O)COc3ccc(S(=O)(=O)Nc4ccccc4)cc32)cc1	-12%	-5%
CCOc1cc(C(=O)NCC(C)CN(C)C)cc(OCC)c1OCC (configuration not stated)	?	-1%
CC1(C(=O)Nc2cccc3ccccc23)CCN1C(=O)C1(c2ccccc2)CCCC1 (configuration not stated)	2%	-13%
CCOC(=O)c1nn(-c2ccc3ccccc3c2)cc1O	?	-25%
CCN(C(=O)COC(=O)c1cc([N+](=O)[O-])ccc1N1CCOCC1)C1CCCCC1	-3%	-17%
CN(C)S(=O)(=O)n1cnc([C@@H]2[C@@H]3C(=O)OC[C@@H]3C[C@]23N=CN(Cc2ccccc2)C3=O)c1	i	-1%
CCOC(=O)CC1C(=O)NC2CCCCC2N1C(=O)Nc1ccc(Cl)cc1 (configuration not stated)	·	-20%
CC(C)CNC(=O)CSc1nnc(-c2cccc(S(=O)(=O)N3CCCCC3)c2)o1	?	?
Cc1cccc(CCNC(=O)COc2cc(=O)n(C)c3ccccc23)c1	-27%	0%
Cc1ccc(S(=O)(=O)N(C)C[C@H]2OCCCC[C@@H](C)Oc3ccc(NC(=O)Cc4ccccc4)cc3C(=O)N([C@H](C)CO)C[C@@H]2C)cc1	-12%	?
(listing goes on)
SMILES	VACV mCherry inh	Vaccinia Venus
CN(C)c1ccc(C=C2SC(=S)NC2=O)cc1	-9%	96%[activator]
CCOC(=O)N1CCC(N(CCN(C)C)C(=S)Nc2ccc(Oc3ccccc3)cc2)CC1	-10%	-18%
COc1ccc(C(C(=O)NC2CCCC2)N(Cc2ccccc2)C(=O)c2snc(C(N)=O)c2N)cc1OC (configuration not stated)	-9%	0%
Cc1ccc(C(=O)N/N=C\c2ccc(OC(=O)c3cccc(F)c3)cc2)cn1	-23%	-2%
COC(=O)c1ccc(NC(=O)CCc2nnc3ccc(N4CCC5(CC4)OCCO5)nn23)cc1	-10%	-1%
O=C(CC1C(=O)N(c2ccccc2)C(=O)N1CCC1=CCCCC1)Nc1ccc(F)cc1 (configuration not stated)	-5%	-8%
CCOC(=O)N(C)c1c(CC)nc2c(OCc3ccc(C(F)(F)F)cc3)cccn12	18%	-19%
COc1ccc(CCNc2ccc(N3C(=O)CC(C)C3=O)cc2[N+](=O)[O-])cc1 (configuration not stated)	-15%	-8%
O=C(NCc1cccnc1)C1CC(c2ccccc2O)=NO1 (configuration not stated)	-1%	-17%
COc1ccccc1C(CNC(=O)c1cccc(S(=O)(=O)NCc2ccccc2)c1)N(C)C (configuration not stated)	-29%	-22%
CC1CCc2nn(CC(=O)NCCCN3CCOCC3)cc2C1 (configuration not stated)	-6%	-10%
CCCCCCOc1ccc(N2C(=O)CC(N(CCc3ccc(S(N)(=O)=O)cc3)C(C)=O)C2=O)cc1 (configuration not stated)	-9%	-6%
COc1cc2c(cc1OC)CN(C(=O)c1oc3ccccc3c1C)CC2	?	-19%
Cc1ccccc1CNC(=O)C(=O)NCC1OCCCN1S(=O)(=O)c1ccc(F)cc1C (configuration not stated)	-19%	-12%
CC(NC(=O)C1CCC(CNS(=O)(=O)c2ccc3c(c2)C(C)(C)C(=O)N3C)CC1)c1ccccc1 (configuration not stated)	-12%	-21%
N#Cc1c(NC(=O)C2CC(Cl)=CCC2C(=O)O)sc2c1CCCCC2 (configuration not stated)	1%	-6%
CC1(C)CC(=O)c2c(n(-c3cccc4ccccc34)ccc2=O)C1	·	-18%
CCCOC(=O)c1ccc(Oc2c(-c3ccc(OC)cc3O)n[nH]c2C)cc1	i[1.46 µM]	?
Cc1sc2ncnc(-n3cnc4ccccc43)c2c1C	-18%	-10%
COc1cc(OC)cc(C(=O)NNC(=O)c2ccccc2Br)c1	-13%	-9%
CCCCCC/C=N/Nc1nnc(Cc2ccccc2)c(=O)[nH]1	-6%	-4%
O=C1CC(Cc2ccccc2)C(=O)N1c1ccc(Cl)cn1 (configuration not stated)	-15%	-6%
COc1ccc2[nH]c3c(c2c1)CCN1C(=O)N([C@@H](C)C(=O)NC2CCCCC2C)C(=O)[C@]31C (some centres not stated)	31%[activator]	-1%
Cc1cc(NC(=O)c2ccc(N3C(=O)C4C5C=CC(C5)C4C3=O)cc2)no1 (configuration not stated)	i	-18%
COc1ccccc1N1CCN(C(=O)C(C)N(c2ccc(C)c(C)c2)S(C)(=O)=O)CC1 (configuration not stated)	·	-23%
The list continues:
SMILES	VACV mCherry inh	Vaccinia Venus
COc1ccc(-c2nnc(SCC(=O)NNC(=O)c3ccc(C)cc3)o2)cc1	-8%	-9%
O=C(Nc1cccc(S(=O)(=O)NC2=NCCCCC2)c1)c1cc(-c2ccccc2)nc2ccccc12	-4%	-14%
O=C(Nc1cc2c(=O)n(-c3ccc(Oc4ccccc4)cc3)ccc2oc1=O)c1ccccc1	-1%	-2%
CC(C)(C)NC(=O)CON=C1c2ccccc2-c2ccccc21	-4%	-11%
C[C@H]1CN([C@@H](C)CO)C(=O)CCCn2nncc2CO[C@@H]1CN(C)S(=O)(=O)c1ccc(-n2cccn2)cc1	-8%	-2%
NC(=O)NC(Cc1ccccc1)C(=O)NNC(=O)COc1ccccc1Cl (configuration not stated)	i	-4%
O=C(CN1CCCC1)Nc1c2c(nc3ccccc13)N(Cc1ccccc1)CC2	i	-14%
Nc1cc(Cl)nc(N/N=C/c2ccc([N+](=O)[O-])cc2)n1	i	-15%
CCCc1ccc2oc(C(=O)N(C)Cc3ccn[nH]3)c(C)c2c1	-11%	-17%
O=C(Nc1ccc(OCc2cc(=O)n3c4c(sc3n2)CCCC4)cc1)c1ccccc1	1%	?
CCc1ccc(NC(=S)N(CCCN2CCN(C)CC2)Cc2cccs2)cc1	-19%	-19%
CCOC(=O)c1ccc2[nH]c3c(c2c1)CN(C)CC3	0%	22%
COc1ccc(-c2noc(-c3ccc(NCC4CCCO4)c([N+](=O)[O-])c3)n2)cc1OC (configuration not stated)	-5%	-4%
Cc1cc(/C=C(\C#N)C(=O)NCc2ccccc2)c(C)[nH]1	-14%	-20%
COc1ccc(NC(=O)c2oc3ccccc3c2NC(=O)c2cc3ccccc3o2)cc1	-24%	-18%
COc1ccc(-c2noc(=O)n2Cc2ccc(F)cc2Cl)cc1	-17%	-10%
O=C(O)CSc1cc(NS(=O)(=O)c2ccc(Br)cc2)c2ccccc2c1O	-25%	-20%
CC[C@]12CC[C@H](O)CC1=CCC1C2CC[C@]2(C)C(=O)CCC12 (some centres not stated)	8%	13%
O=C(Nc1ccc(Cl)cc1C(F)(F)F)C(Sc1cccc[n+]1[O-])c1ccccc1 (configuration not stated)	i	-14%
COc1ccccc1NC(=O)Cc1noc(CSc2nnc(N)s2)n1	·	?
C=CCn1c(O)c(N=NC(=O)OCC)c2ccccc21	-28%	-12%
CC(C)(C)n1nnnc1C(c1ccccc1)N1CCN(c2ccccn2)CC1 (configuration not stated)	-1%	-7%
Cc1cc(/C=N/NC(=O)c2ccncc2)c(C)n1-c1ccccc1	-4%	-28%
CC(=O)c1c(C)n(C2CCCCC2)c2ccc(O)cc12	-4%	-7%
O=C(NCc1ccccc1)c1cc2ccccc2o1	-3%&-24%	4%&-23%

Whole records from above. Values in the order: VACV mCherry inh | Vaccinia Venus
Entry for COc1ccc(CCNc2ccc(N3C(=O)CC(C)C3=O)cc2[N+](=O)[O-])cc1 (configuration not stated) : -15% | -8%
Entry for CN(C)c1ccc(C=C2SC(=S)NC2=O)cc1 : -9% | 96%[activator]

Some of the entries so far, in markdown:
| mol | VACV mCherry inh | Vaccinia Venus |
| --- | --- | --- |
| CCCc1ccc2oc(C(=O)N(C)Cc3ccn[nH]3)c(C)c2c1 | -11% | -17% |
| O=C(Nc1ccc(OCc2cc(=O)n3c4c(sc3n2)CCCC4)cc1)c1ccccc1 | 1% | ? |
| CCc1ccc(NC(=S)N(CCCN2CCN(C)CC2)Cc2cccs2)cc1 | -19% | -19% |
| CCOC(=O)c1ccc2[nH]c3c(c2c1)CN(C)CC3 | 0% | 22% |
| COc1ccc(-c2noc(-c3ccc(NCC4CCCO4)c([N+](=O)[O-])c3)n2)cc1OC (configuration not stated) | -5% | -4% |
| Cc1cc(/C=C(\C#N)C(=O)NCc2ccccc2)c(C)[nH]1 | -14% | -20% |
| COc1ccc(NC(=O)c2oc3ccccc3c2NC(=O)c2cc3ccccc3o2)cc1 | -24% | -18% |
| COc1ccc(-c2noc(=O)n2Cc2ccc(F)cc2Cl)cc1 | -17% | -10% |
| O=C(O)CSc1cc(NS(=O)(=O)c2ccc(Br)cc2)c2ccccc2c1O | -25% | -20% |
| CC[C@]12CC[C@H](O)CC1=CCC1C2CC[C@]2(C)C(=O)CCC12 (some centres not stated) | 8% | 13% |
| O=C(Nc1ccc(Cl)cc1C(F)(F)F)C(Sc1cccc[n+]1[O-])c1ccccc1 (configuration not stated) | i | -14% |
| COc1ccccc1NC(=O)Cc1noc(CSc2nnc(N)s2)n1 | · | ? |
| C=CCn1c(O)c(N=NC(=O)OCC)c2ccccc21 | -28% | -12% |
| CC(C)(C)n1nnnc1C(c1ccccc1)N1CCN(c2ccccn2)CC1 (configuration not stated) | -1% | -7% |
| Cc1cc(/C=N/NC(=O)c2ccncc2)c(C)n1-c1ccccc1 | -4% | -28% |
| CC(=O)c1c(C)n(C2CCCCC2)c2ccc(O)cc12 | -4% | -7% |
| O=C(NCc1ccccc1)c1cc2ccccc2o1 | -3%&-24% | 4%&-23% |

Next section
SMILES	VACV mCherry inh	Vaccinia Venus
COc1ccc(CCNC(=O)C2CCN(C(=O)c3ccc(OC)c(OC)c3)CC2)cc1	-4%	-24%
CCOC(=O)[C@]12Cc3cc(C)ccc3[C@H]1N(CCC(=O)OC)C(=O)c1ccccc12	?	?
Cc1cc(C)cc(N2C(=O)CCSC23C(=O)N(Cc2ccccc2)c2ccccc23)c1 (configuration not stated)	?	?
COc1ccc(CC(=O)N2N=C(C)CC2(O)C(F)(F)F)cc1 (configuration not stated)	-3%	-10%
CCOC(=O)Cn1nc(Cc2ccccc2)c2ccccc2c1=O	-1%	-10%
Nc1nc2c(s1)C(=O)CC(c1ccccc1)C2 (configuration not stated)	i	-12%
COc1ccc(-c2c3c(=O)n(C)c(=O)n(C)c3c3c(C)nc4ccccc4n23)cc1	-10%	1%
COc1ccccc1/C=C/c1ccnc2ccccc12	14%	-18%
CN1CCCC1CCOC(C)(c1ccccc1)c1ccc(Cl)cc1 (configuration not stated)	-15%	-28%
CC(C)(C)Nc1nc(Cl)nc(NC2CCCCC2)n1	-6%	-9%
CCOC(=O)C1CN(C(=O)OCC)CC1=NNC(N)=O (configuration not stated)	-22%	-12%
CC1CCN(C(=O)CSc2nc(C3CC3)nc3ccccc23)CC1	2%	-22%
CC(CN1C(C)CCCC1C)OC(=O)c1cccc(Br)c1 (configuration not stated)	i	-5%
CC1CCN(S(=O)(=O)c2ccc(S(=O)(=O)N3CCC4(CC3)OCCO4)cc2)CC1	-10%	-1%
CNc1cncc(-c2cc(OC)c(OC)c(OC)c2)n1	i	-6%
O=C(NCc1ccccc1F)c1ccc(CN2CC(=O)N3CCCCC3C2=O)cc1 (configuration not stated)	i	-7%
O=C(Cn1nc(-c2ccccc2)c2ccccc2c1=O)NN1CCOCC1	-2%	-9%
CCC1CCCCN1C(=O)Cn1c(=O)n(-c2ccccc2C(F)(F)F)c(=O)c2c(C)c(C(=O)N(C)C)sc21 (configuration not stated)	-6%	2%
COc1ccc2cnnc(SCC(=O)Nc3ccc(C(C)=O)cc3)c2c1OC	-15%	-12%
O=S(=O)(c1ccc(NC(=S)N2CCCCC2CO)cc1)N1CCOCC1 (configuration not stated)	-1%	-12%
